CHO-K1 Ca antag: M1 antagonist counterscreen hit in parental CHO-K1 cells | ATP-induced calcium, Fluo-8 fluorescence | inhibition, % at 3 µM | hit rate 0.6% among 360,000 | AID 602250;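 active means inhibition above a per-plate cutoff, the plate's mean sample inhibition plus 3 SD, cut at about 24% in these data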;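 further: 0% = DMSO plus EC80 ATP and 100% = DMSO alone without ATP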
TAAR1 ag: human TAAR1 agonism; Q96RJ0; CHO RD-HGA16 TAAR1, Fluo-8 calcium fluorescence; vehicle wells 0%, saturating PEA agonist 100%; activation, % at 3 µM; hit rate 0.99% among 360,000; AID 624467;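 active means activation above the mean activation of all test compounds in the run plus 3 SD, cut at about 38% in these data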
Target sequence (Q96RJ0 whole entry, looked up): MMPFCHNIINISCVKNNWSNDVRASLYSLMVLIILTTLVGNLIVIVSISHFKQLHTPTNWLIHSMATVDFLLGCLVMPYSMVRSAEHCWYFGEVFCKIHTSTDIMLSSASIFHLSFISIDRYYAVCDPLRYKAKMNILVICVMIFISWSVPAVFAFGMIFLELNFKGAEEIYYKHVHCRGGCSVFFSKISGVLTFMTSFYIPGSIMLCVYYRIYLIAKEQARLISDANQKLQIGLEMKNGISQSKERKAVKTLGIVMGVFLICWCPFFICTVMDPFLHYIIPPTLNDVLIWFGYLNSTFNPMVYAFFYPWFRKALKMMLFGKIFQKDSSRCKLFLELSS
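Benchmarks: low control DMSO, high control PEA (EC100); System: CHO RD-HGA16 cells carrying human TAAR1 plus Gα16; Detection: Fluo-8 fluorescence, 5 s baseline then 140 s kinetic read; Schedule: 17-24 h plating, Fluo-8 75 min 37 °C, 30 min RT; Read-out basis: % activation from peak over basal fluorescence ratio, DMSO-to-PEA scaled.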
OXTR potentiate: human OXTR potentiation; hit rate 0.061% among 320,000; activation, % at 3 µM; CHO-OTR cells, Fluo-8 calcium fluorescence, potentiator mode; 0% = oxytocin EC15, 100% = EC100; AID 2445;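 active means activation above that plate's cutoff, the mean activation of tested compounds plus 3 SD, cut at about 6.6% in these data, passing the limit was not always enough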;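 further: 100% uses oxytocin at 75 nM as the full agonist control; some results filed as inactive read as strong as hits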
Target sequence (P30559 whole entry, looked up): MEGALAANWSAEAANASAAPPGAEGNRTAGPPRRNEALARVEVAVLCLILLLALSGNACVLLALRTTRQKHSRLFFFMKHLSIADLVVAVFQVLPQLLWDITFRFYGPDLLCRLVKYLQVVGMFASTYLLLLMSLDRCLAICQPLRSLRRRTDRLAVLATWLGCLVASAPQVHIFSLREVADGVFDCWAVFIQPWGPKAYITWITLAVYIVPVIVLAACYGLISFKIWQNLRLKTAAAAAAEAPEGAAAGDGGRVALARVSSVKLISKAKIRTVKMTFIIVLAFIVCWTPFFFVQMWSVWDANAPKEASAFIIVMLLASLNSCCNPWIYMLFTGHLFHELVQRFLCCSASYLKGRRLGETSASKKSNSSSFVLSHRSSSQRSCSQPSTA
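test system = CHO-OTR cells, human receptor | compound = single-point 3.0 µM | schedule = 6 min compound pre-incubation at room temperature, 100 s kinetic read | signal = Fluo-8 no-wash calcium dye fluorescence, excitation 470-495 nm, emission 515-575 nm | repeats = single well per compound, singlicate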
TAAR1 antag: human TAAR1 antagonism | AID 624466 | inhibition, % at 3 µM | Q96RJ0 | hit rate 1.5% among 360,000 | CHO RD-HGA16 TAAR1, Fluo-8 calcium fluorescence, antagonist;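 active means inhibition above a per-plate cutoff, the mean inhibition of test compounds on that plate plus 3 SD, cut at about 49% in these data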;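 further: 0% = DMSO plus EC80 beta-PEA response and 100% = DMSO alone without agonist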
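Assay system: CHO-derived RD-HGA16 cells stably expressing human TAAR1 plus Gα16. Timing: 140 s kinetic read after compound, 140 s after agonist. Technique: kinetic Fluo-8 calcium fluorescence measurement. Measure: % inhibition of agonist calcium response.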
CHO-K1 Ca ag: nonselective activator or artifact in parental CHO-K1 cells; hit rate 0.48% among 360,000; Fluo-8 calcium fluorescence; scaled to maximal ATP response, vehicle zero; activation, % at 3 µM; AID 602248; in the data active means activation above about 15%;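 further: untransfected CHO-K1 host cells lacking M1 receptor as counterscreen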
CHO-K1 Ca PAM: nonselective activator or artifact in parental CHO-K1 calcium assay; ATP EC20, Fluo-8 calcium fluorescence; 0% at ATP EC20, 100% at ATP max; activation, % at 3 µM; hit rate 0.02% among 360,000; AID 602247;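 active means activation above the run cutoff, the mean activation of all test compounds plus 3 SD, cut at about 40% in these data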;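 further: peak over basal fluorescence ratio in a 140 s read after ATP addition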
* marks the source's active call; other numbers are inactive results; . = not tested or not shown; & = joins results of further samples. These rows are one share of the data (hit frequency here may not be typical).

#	canonical_smiles	CHO-K1 Ca antag	TAAR1 ag	OXTR potentiate	TAAR1 antag	CHO-K1 Ca ag	CHO-K1 Ca PAM
1	COc1cc(/C=N\n2nnnc2N)ccc1OCc1ccc(F)cc1	11	3	-7	10	0.6	-7
2	CCOc1cc2nc(-c3ccc(OC)c(OC)c3)nc(N3CCOCC3)c2cc1OC	.	7	3	1	.	.
3	O=S(=O)(O)c1cc(O)ccc1O	0	0	-10	5	0.5	5
4	Cc1cc(C(=O)NCCCN2CCCC2=O)no1	-3	8	-2	0	0.2	-10
5	O=C(Nc1ccc(Oc2ccccc2)cc1)c1cnc2n(c1=O)CCS2	2	5	-8	11	5.2	-3
6	O=C(O)c1cc(-c2ccccc2)nc2ccccc12	6	1	-2	6	-0.2	-13
7	O=C(O)c1ccc(COc2ccccc2/C=C2\NC(=O)N(Cc3ccc(F)cc3)C2=O)cc1	0	5	-12	22	-0.1	7
8	C[C@H](CCC(=O)O)[C@H]1CC[C@H]2[C@@H]3CC[C@@H]4C[C@H](O)CC[C@]4(C)[C@H]3C[C@H](O)[C@]12C	16&10&-18	4&6&6&2	-5	-9&-7&-26&-12	-0.2&0.0&1.1	-10&-9&21
9	OC(c1cccc(OCc2ccccc2)c1)c1nnc(-c2ccccc2)o1 (stereo unspecified)	17	12	-23	27	7.5	7
10	FC(F)(F)c1cccc(NC(=S)N2CCN(c3ccccc3)CC2)c1	-7	4	-5	0	0.4	16
11	Cc1ccc(NC(=O)C2CCN(S(=O)(=O)c3ccc4c(c3)NC(=O)C(C)S4)CC2)cc1Cl (stereo unspecified)	21	7	-6	38	7.6	-17
12	CCCCC(=O)Nc1nnn(CCC)n1	-10	-1	1	6	0.7	27

In the list so far, 3 contain a COOH group:
#	canonical_smiles	CHO-K1 Ca antag	TAAR1 ag	OXTR potentiate	TAAR1 antag	CHO-K1 Ca ag	CHO-K1 Ca PAM
6	O=C(O)c1cc(-c2ccccc2)nc2ccccc12	6	1	-2	6	-0.2	-13
7	O=C(O)c1ccc(COc2ccccc2/C=C2\NC(=O)N(Cc3ccc(F)cc3)C2=O)cc1	0	5	-12	22	-0.1	7
8	C[C@H](CCC(=O)O)[C@H]1CC[C@H]2[C@@H]3CC[C@@H]4C[C@H](O)CC[C@]4(C)[C@H]3C[C@H](O)[C@]12C	16&10&-18	4&6&6&2	-5	-9&-7&-26&-12	-0.2&0.0&1.1	-10&-9&21

(list continues)
#	canonical_smiles	CHO-K1 Ca antag	TAAR1 ag	OXTR potentiate	TAAR1 antag	CHO-K1 Ca ag	CHO-K1 Ca PAM
13	CCC1CCCCN1C(=O)c1cc(COc2ccc3ncccc3c2)on1 (stereo unspecified)	27*	8	-8	13	16*	-7
14	O=C(c1ccc(NS(=O)(=O)c2ccccc2)cc1)N1CCN(c2ccccc2)CC1	.	5	-1	11	1.0	-8
15	O=C(Nc1ccc2oc(-c3cccnc3)nc2c1)c1cc2ccccc2o1	-9	8	-9	6	0.8	18
16	O=C(O)c1cc(NS(=O)(=O)c2cccc3ccccc23)ccc1O	.	1	-2	7	-0.1	-7
17	CN1C(CCl)Nc2cc(Cl)c(S(N)(=O)=O)cc2S1(=O)=O (stereo unspecified)	-13	6	.	-5	0.7	10
18	CN1CCN(C(=O)c2ccccc2NC(=O)c2cccs2)CC1	6	4	-2	10	-0.1	-4
19	O=C(Nc1nc(NC(=O)c2ccco2)n(-c2ccccc2)n1)c1ccccc1	0	7	5	-10	2.0	10
20	OC(CNCC1CCCO1)Cn1c2ccc(Cl)cc2c2cc(Cl)ccc21 (stereo unspecified)	-5	19	-16	30	0.5	10
21	NC(CCC(=O)NC(CS)C(=O)NCC(=O)O)C(=O)O (stereo unspecified)	-6	1	.	-4	0.4	12
22	O=C(O)COCCN1CCN([C@H](c2ccccc2)c2ccc(Cl)cc2)CC1	-4	0	-3	-15	0.8	13
23	C[C@@H]1C[C@H]2[C@@H]3C[C@H](F)C4=CC(=O)C=C[C@]4(C)[C@@]3(F)[C@@H](O)C[C@]2(C)[C@@]1(O)C(=O)CO	-2	2	-4	-10	0.3	15
24	CC(C)(C)OC(=O)C[C@H]1C/C=C\C[C@H](CC(=O)N[C@@H](CO)Cc2ccccc2)C(=O)N[C@H](C(C)(C)C)COC1=O	-5	1	2	-5	0.4	-6

A different layout for four compounds above.
Order of results – CHO-K1 Ca antag, TAAR1 ag, OXTR potentiate, TAAR1 antag, CHO-K1 Ca ag, CHO-K1 Ca PAM
21. NC(CCC(=O)NC(CS)C(=O)NCC(=O)O)C(=O)O (stereo unspecified)
  -6, 1, ., -4, 0.4, 12
22. O=C(O)COCCN1CCN([C@H](c2ccccc2)c2ccc(Cl)cc2)CC1
  -4, 0, -3, -15, 0.8, 13
23. C[C@@H]1C[C@H]2[C@@H]3C[C@H](F)C4=CC(=O)C=C[C@]4(C)[C@@]3(F)[C@@H](O)C[C@]2(C)[C@@]1(O)C(=O)CO
  -2, 2, -4, -10, 0.3, 15
24. CC(C)(C)OC(=O)C[C@H]1C/C=C\C[C@H](CC(=O)N[C@@H](CO)Cc2ccccc2)C(=O)N[C@H](C(C)(C)C)COC1=O
  -5, 1, 2, -5, 0.4, -6

(listing goes on)
#	canonical_smiles	CHO-K1 Ca antag	TAAR1 ag	OXTR potentiate	TAAR1 antag	CHO-K1 Ca ag	CHO-K1 Ca PAM
25	COc1ccc(Sc2cnn(-c3ccccc3)c(=O)c2Cl)cc1	-4	7	-11	-6	0.9	6
26	CCC(=O)N(CC)c1nc(-c2ccc(OC)cc2)cs1	8	70*	-6	70*	5.9	13
27	CC(C)c1ccc(OCC(=O)Nc2ccncc2)cc1	9	4	-12	25	7.2	0
28	C/C(=N\O)c1ccc(Cl)c(Cl)c1	.	.	-7	.	.	.
29	COc1ccc(OC)c(/C=N/NC(=O)c2cc3c(OC)cc(OC)cc3[nH]2)c1	-6	6	-13	41	2.5	12
30	CC1(C)S[C@@H]2[C@H](NC(=O)[C@H](N)c3ccccc3)C(=O)N2[C@H]1C(=O)OC1OC(=O)c2ccccc21 (stereo partly specified)	-1	3	-13	1	-0.2	15
31	C=C(C)Cn1c(CCCNC(=O)C(C)(C)C)nc2ccccc21	-5	2	-4	3	-0.1	6
32	O=C(OCc1ccccc1)c1ccccc1	-12	2	-3	-24	-0.2	6
33	Cc1c(N(C)C)c(=O)n(-c2ccccc2)n1C	-18	0	-1	2	0.2	11
34	Cc1cc(Nc2cccc(Cl)c2)nc(NCc2ccccc2)n1	21	38*	-10	0	3.9	4
35	CCCCC1(COC(=O)CCC(=O)O)C(=O)N(c2ccccc2)N(c2ccccc2)C1=O	-13	0	2	8	0.4	26
36	CC[N+](C)(C)c1cccc(O)c1	-7	0	-3	-13	0.9	9
37	CCOc1ccc(S(=O)(=O)N2CCCC(C(=O)Nc3cc(C)cc(C)c3)C2)cc1 (stereo unspecified)	-3	2	-3	-4	-0.3	-10
38	OCCN1CCN(CC/C=C2/c3ccccc3Sc3ccc(C(F)(F)F)cc32)CC1	-5	15	-6	15	3.4	17
39	CC(C)Oc1ccc(NC(=O)Oc2ccccc2)cc1	-12	11	-5	-35	1.9	24
40	Cn1nnnc1SCC(=O)Nc1ccc(N2CCOCC2)cc1	-24	0	-5	13	3.4	-4
41	CCC(C(=O)OCCN(CC)CC)c1ccccc1 (stereo unspecified)	-2	1	-11	-30	0.6	23
42	COc1ccc(C(=O)ON=C2c3ccccc3-c3ccccc32)cc1OC	-8	12	-4	8	0.0	23
43	CC(CN(C)C)CN1c2ccccc2CCc2ccccc21 (stereo unspecified)	8	8	-3	3	1.4	8
44	COc1ccc(NS(=O)(=O)c2cccc(C(=O)OCC(=O)N3CCN(c4ccc(OC)cc4)CC3)c2)cc1	10	5	-19	17	12	5
45	O=C(CCN1CCN(c2ccc([N+](=O)[O-])cc2)CC1)c1ccc(Cl)cc1	17	5	-18	26	9.9	-9
46	Cc1ccc(NC(=O)C2CCN(S(=O)(=O)c3cc([N+](=O)[O-])ccc3Cl)CC2)nc1	16	10	-10	14	14	-15

Compound activity as filed in PubChem BioAssay.
